# Screens from PubChem BioAssay.
# Mtb hypoxia rep – Mtb hypoxia fluorescent reporter inhibition; M. tuberculosis hypoxia-regulated fluorescent reporter, fluorescence; fluorescence inhibition, % (concentration not given with the values); 300,000 tested, 0.1% active; AID 1159583;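 active = 35 to 45% if threefold the growth effect, above 45% if 1.5-fold the growth effect; inactive = the rest, general growth blockers included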;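 also: wells of about 50 µL received 100 nL stock; 0% = vehicle wells and 100% = reference inhibitor wells; whole bacteria with a GFP reporter of the hypoxia response; strong numbers were not always called active; many hits fall short of the cut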
# Sa RN4220 lethal – kills Staphylococcus aureus RN4220; 330,000 tested, 0.33% active; AID 1259311; inhibition, % (test concentration not listed); S. aureus RN4220 growth, OD600, 16 h;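 active = z-score of -3 or lower and OD600 up to 0.18 on both plates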;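 also: plate controls were untreated cells for no effect and reference antibiotic for full effect; stock transfer was 100 nL into about 80 µL; one replicate is shown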
# PrP 5UTR inh – suppresses PrP 5' UTR mRNA reporter expression. cell-based PrP 5' UTR mRNA reporter, plate reader. inhibition, % (concentration not given with the values). 340,000 tested, 0.35% active;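 active = every replicate at 50% or more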;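 also: 0 = median of the neutral control wells; tested in H4 reporter cells; numbers are from one replicate; inactives centre near -14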
# Bead autofluor – compound fluorescence in toxin protease inhibitor counterscreen. compound autofluorescence counterscreen, microsphere flow cytometry; stronger effect = higher value. fluorescence intensity (concentration not given with the values). 360,000 tested, 3.1% active;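 active = at least 3 SD above the mean of all compounds, about 16000 in these data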;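 also: 100 nL of 1 mM stock went into each well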
# BJeLR lethal – BJeLR cell viability loss; BJeLR (HRASV12) viability, CellTiter-Glo ATP luminescence, 48 h; reference of the scale not given here; 300,000 tested, 0.17% active; inhibition, % (concentration not given with the values);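 active = replicate mean above 50%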;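 also: 50 nL library stock added to about 25 µL; numbers are from one replicate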
# ugtP null kill – growth inhibition of S. aureus ugtP deletion strain; S. aureus RN4220 ugtP deletion, OD600 growth, 16 h; some inactives read as strong as hits; AID 1259309; growth inhibition, % (test concentration not listed); 330,000 tested, 0.54% active;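 active = z-score under -3 and OD600 up to 0.15 on both plates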;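 also: plate controls were untreated wells for no effect and antibiotic for full effect; wells of about 80 µL received 100 nL stock; the first replicate is given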
# Mtb hypoxia rep growth – also measured in Mtb hypoxia rep; calls as there; growth inhibition, %; measured here: M. tuberculosis growth (absorbance);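 0% = vehicle and 100% = reference antibiotic; read after six days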
# Numbers without * were called inactive; . = no result given; & = joins results of further samples. This is a random part of the collection; overall some 4% were active at least once.
SMILES,Mtb hypoxia rep,Mtb hypoxia rep growth,Sa RN4220 lethal,PrP 5UTR inh,Bead autofluor,BJeLR lethal,ugtP null kill
Cc1ccc(S(=O)(=O)N2CCOCC2)cc1NC(=O)COC(=O)CSc1ccc(Br)cc1C,5,11,7.5,-14,22185*,2,-4
CC(C)Cn1c(N)c(C(=O)CSc2cc(Cl)ccc2Cl)c(=O)n(C)c1=O,-11,0,5.0,.,.,4,1
CCOC(=O)NN1C(=O)c2ccccc2NC1c1ccccn1 (centres undefined),6,10,2.6,-62,4688,0,0
O=C(N/N=C/c1ccsc1)C1CC1,.,.,.,-19,3935,25,.
CCC=CC(=O)N1CC2(CC(c3cccc(NC(=O)CCCCC)c3)=NO2)CC1C(N)=O (centres undefined),-1,3,8.3,.,.,.,12
CCCCC(=O)Nc1ccc(C(=O)Nc2nnc(COC)s2)cc1,4,5,1.8,-17,21834*,-12,9
Cc1ccc(N2CCN(N=C/C(Cl)=C/c3ccccc3)CC2)cc1,-12,-1,6.9,.,.,.,5
OC(CCc1cccc(Cl)c1)c1cccs1 (centres undefined),.,.,8.2,-31,3943,1,5
N=c1sccn1CC(=O)Nc1ccc(SC(F)F)cc1,11,4,-3.0,-23,3491,1,2
Cc1ccc(-n2nc3c(=O)n(CC(=O)NCCCc4ccccc4)nc(C)c3c2C)cc1,1,2,1.9,-23,5839,8,4
C=CCN(c1ccccc1C(=O)NCC(=O)O)S(=O)(=O)c1ccc(C)cc1,17,8,2.1,-13,6042,2,3
C=CCc1c(C)nc(SCC(=C)C)[nH]c1=O,-7,10,7.2,2,6665,-1,-7
Cc1nn(-c2ccc(Cl)cc2)c(Cl)c1/C=C(\C#N)C(N)=O,.,.,.,-9,10837,12,.
O=C(O)/C=C/c1ccc(S(=O)(=O)Nc2ccc3[nH]c(=O)[nH]c3c2)cc1,-2,10,1.3,-18,3262,-12,7
COC(=O)c1cc2sccc2n1Cc1nc(-c2ccc(Cl)cc2)oc1C,3,8,1.5,0,9193,-9,0
O=C(NCc1cc(C(F)(F)F)ccc1F)C1CCC(=O)N(C2CC2)C1 (centres undefined),4,8,0.2,-14,7412,0,3
CCC1=NN2C(=N)/C(=C\c3ccc(OCCOc4ccccc4OC)cc3)C(=O)N=C2S1,10,5,3.6,-1,3231,-9,3
COCCNC(=O)CN1CCC(n2c(C)nc3cc(C(F)(F)F)ccc32)CC1,2,14,-0.5,-15,9076,-10,-7
CCN(CC(=O)Nc1c(F)cccc1F)C(=O)CCc1c[nH]c2ccccc12,-1,4,1.2,-21,4518,-5,-1
O=C(CSc1ccc(F)cc1)N1CCOCC1,16,0,1.1,-15,4104,2,3
COc1cccc(C2NC(=O)NC(C)=C2C(=O)OCCSC)c1OC (centres undefined),-2,8,3.7,-27,10098,-1,0
Cn1cccc1/C=C1\Cc2ccccc2C1=O,8,12,9.3,.,4221,5,12
CCn1cc(C(=O)N2CCc3ccccc32)c(=O)c2cc(S(=O)(=O)N(C)C3CCCCC3)ccc21,2,2,7.2,9,2605,-7,8
CSCCC(NC(=O)c1ccco1)C(=O)OC(C)C(=O)NC(=O)NC1CCCCC1 (centres undefined),18,9,1.8,-13,3784,-3,2

# In a second layout: entries from further up.
> O=C(NCc1cc(C(F)(F)F)ccc1F)C1CCC(=O)N(C2CC2)C1 (centres undefined)
- Mtb hypoxia rep: 4
- Mtb hypoxia rep growth: 8
- Sa RN4220 lethal: 0.2
- PrP 5UTR inh: -14
- Bead autofluor: 7412
- BJeLR lethal: 0
- ugtP null kill: 3

> O=C(O)/C=C/c1ccc(S(=O)(=O)Nc2ccc3[nH]c(=O)[nH]c3c2)cc1
- Mtb hypoxia rep: -2
- Mtb hypoxia rep growth: 10
- Sa RN4220 lethal: 1.3
- PrP 5UTR inh: -18
- Bead autofluor: 3262
- BJeLR lethal: -12
- ugtP null kill: 7

# (continued)
SMILES,Mtb hypoxia rep,Mtb hypoxia rep growth,Sa RN4220 lethal,PrP 5UTR inh,Bead autofluor,BJeLR lethal,ugtP null kill
Cc1nc2c(sc(=S)n2Cc2ccco2)c(=O)n1CC(=O)Nc1ccccc1Cl,-10,-8,-2.9,-14,6288,-2,-3
O=C(c1c(F)cccc1F)N1CCN(CCOc2ccccc2)CC1,20,4,-5.3,-11,4384,0,25
CC(C)CC1CC(=O)OC1(C)C(=O)CSc1nc2ccccc2s1 (centres undefined),.,.,2.8,-36,2869,-1,22
CC1CC(C)CN(CCCNC(=O)C2CCC(=O)N2C2CCCC2)C1 (centres undefined),9,19,1.4,-6,6814,0,2
Cc1ccccc1C(=O)Nc1cccc(NC(=O)c2ncn[nH]2)c1,6,5,8.2,-16,2224,5,-8
Cc1c(NC(=O)C(C)OC(=O)CNC(=O)c2ccc(C(C)(C)C)cc2)c(=O)n(-c2ccccc2)n1C (centres undefined),-1,7,0.7,-15,6867,-2,19
Cc1ccccc1NS(=O)(=O)c1ccc(C(=O)NCCCN2CCOCC2)cc1,10,-3,4.4,-17,4138,0,3
Nc1ccn([C@H]2C[C@H](O)[C@@H](CO)O2)c(=O)n1,.,.,.,-19&15,5286&5685,0&2,.
O=C(NC1CCCC1)C1CC(c2ccc(F)cc2)=NO1 (centres undefined),.,.,3.2,-14,23071*,4,1
O=C1C(C=Nc2ccccc2O)=C(O)c2ccccc21,7,20,12,-84,7664,-5,-10
COc1ccc(C(CC(=O)N2CCCC2)c2c(OC)cc(OC)c3c(-c4ccccc4)cc(=O)oc23)cc1 (centres undefined),.,.,.,-26,3613,-6,.
O=C(NC12CC3CC(CC(C3)C1)C2)c1ccc(N2CCNCC2)c([N+](=O)[O-])c1,-17,1,-5.2,-20,3958,11,-15
Cc1ccc(SCC(=O)N2CCN(c3ccccn3)CC2)cc1,2,-3,19,-29,4255,13,2
Cc1cc(C)c(NC(=O)c2cccs2)c(C)c1NC(=O)c1cccs1,7,6,2.3,3,6366,0,-1
CCN(CCO)C(=S)Nc1cc(S(=O)(=O)N(C)C)ccc1C,-6,-6,0.9,5,4395,6,1
Cc1ccc(-c2ccc(/C=N\n3cnnc3)o2)c(Br)c1,.,.,.,-21,3481,-2,.
O=C(NCn1ccc(=O)[nH]c1=S)c1ccccc1,.,.,0.2,-4,3024,-6,3
Cc1nc(-c2ccccc2)nc2[nH]c(=O)n(-c3ccccc3)c(=O)c12,4,6,1.3,-45,8764,-2,-5
O=C(Cc1ccccc1)Nc1ccc(N2CCCCC2)cc1,-5,2,-1.6,-59,2407,1,1
O=C(c1cc([N+](=O)[O-])ccc1Cl)N1c2ccccc2Sc2ccccc21,9,5,-0.8,-13,2679,-40,8
O=C(COC(=O)Cn1nnc2ccccc21)Nc1ccccc1Br,5,-1,6.3,-12,2174,3,3
Cc1cc(NC(=O)CCCN2C(=O)/C(=C/c3cccs3)SC2=S)no1,12,11,3.5,-14,2418,15,1
O=C1Nc2ccccc2C1(c1ccccc1)c1ccccc1,4,1,4.8,-14,9481,-1,-54
O=C(NS(=O)(=O)N1CCCC1)C1=C(N2CCCC2)COC1=O,1,7,2.8,-8,3984,.,-4
COc1ccc(CN2CCN(Cc3ccc(Br)cc3)CC2)c(OC)c1OC,9,-1,1.5,-14,3718,-6,1
COc1ccccc1CN1CCCC(CN(CCN(C)C)C(=O)C2CCCC2)C1 (centres undefined),11,1,4.9,34,3572,5,4
COc1ccc(OC)c(NC(=O)c2cccc(N3C(=O)C4C5CCC(C5)C4C3=O)c2)c1 (centres undefined),0,-4,5.9,-3,4264,-5,15
Cc1coc2cc3oc(=O)c(CCC(=O)O)c(C)c3cc12,-2,1,5.9,3,3826,6,10
Cc1ccc(NC(=O)COC(=O)CCC(=O)c2cccs2)c(Br)c1,12,0,5.3,0,2915,.,4
O=C(COCCOCC(=O)N(c1ccccn1)C1CCCCC1)N(c1ccccn1)C1CCCCC1,20,14,-12,-11,2902,-2,-7
O=C(Nc1nnc(CCS(=O)(=O)c2ccc(Br)cc2)s1)c1ccc([N+](=O)[O-])cc1,16,9,5.1,8,4910,.,5
COc1cc(NC(=O)Cn2cnc3sc(C)c(S(=O)(=O)N4CCOCC4)c3c2=O)cc(OC)c1OC,-8,-1,-3.4,-30,3708,0,3
CCOc1ccccc1CN1CCN(Cc2ccon2)CC1CCO (centres undefined),12,0,2.0,-13,4923,2,6
Cc1ccc(C(=O)C2CCOC(C)(C)C2)cc1 (centres undefined),18,10,-0.2,-29,2468,4,6
Cc1cc(C)c(NC(=O)C2C3/C=C\CCCCC32)c(C)c1 (centres undefined),2,-1,3.3,-10,7547,7,-2
O=C(O)c1cccc(S(=O)(=O)N2CCCC(c3nc4c(nnn4Cc4ccc(F)cc4)c(=O)[nH]3)C2)c1 (centres undefined),0,-3,3.1,-20,3615,-3,3

# Single records, as listed above.
# Results for O=C(COCCOCC(=O)N(c1ccccn1)C1CCCCC1)N(c1ccccn1)C1CCCCC1 : Mtb hypoxia rep = 20; Mtb hypoxia rep growth = 14; Sa RN4220 lethal = -12; PrP 5UTR inh = -11; Bead autofluor = 2902; BJeLR lethal = -2; ugtP null kill = -7
# Results for COc1ccc(CN2CCN(Cc3ccc(Br)cc3)CC2)c(OC)c1OC : Mtb hypoxia rep = 9; Mtb hypoxia rep growth = -1; Sa RN4220 lethal = 1.5; PrP 5UTR inh = -14; Bead autofluor = 3718; BJeLR lethal = -6; ugtP null kill = 1

# (list continues)
SMILES,Mtb hypoxia rep,Mtb hypoxia rep growth,Sa RN4220 lethal,PrP 5UTR inh,Bead autofluor,BJeLR lethal,ugtP null kill
O=C1CCC/C1=C/Nc1ccc2c(c1)OCO2,10,12,3.9,-4,8737,-3,-2
O=C(Oc1ccc(=O)n(-c2ccccc2)n1)c1ccccc1,.,.,3.3,-31,3688,1,8
O=C(CCc1nc(-c2ccccc2Cl)no1)NCCc1ccccc1,-1,7,-1.5,-18,3903,5,12
CC1=CC(C)(C)N(C(=O)CSc2nnc(N)s2)c2ccccc21,1,9,4.9,-26,2107,-7,3
CSCCCNC(=S)N(C)CC(=O)Nc1ccc(C)cc1,6,8,5.2,-13,4396,-2,6
Cc1ccc(C=NNc2nncc(-c3ccccc3)n2)o1,-6,3,6.1,.,.,.,-5
COc1ccc(S(=O)(=O)N2CCCC(C(=O)Nc3ccc4c(c3)OCCO4)C2)cc1 (centres undefined),-3,-3,-5.6,-1,5698,-1,-5
CC1CCN(C2=NC(=O)C(=Cc3cn(-c4ccccc4)nc3-c3cccc(S(=O)(=O)N(C)C)c3)S2)CC1,4,7,4.8,.,.,.,-12
COC(=O)c1sccc1-c1ccc(C(=O)Nc2cccnc2)o1,4,7,1.3,-58,21993*,-2,-5
COc1ccc(N(CC(=O)NC2CCCC2)C(=O)CCC(=O)Nc2cc(C)on2)cc1,8,9,2.0,-28,5331,3,6
Cc1nn(CCOc2ccccc2)c(=O)n1-c1ccc(Cl)cc1,-2,-5,3.7,-16,3910,4,0
COC(=O)NC1CC2C3CCC4CC(OC)CC[C@]4(C)C3CC[C@@]12C (some centres undefined),7,0,-1.3,.,.,.,10
CCCCc1nc2cc(C(=O)N(C)CCc3cn[nH]c3)ccc2o1,-2,1,2.0,-15,4330,1,-3
COc1ccc(NC(=O)N2CCCC2C(=O)NCc2ccc(F)cc2)cc1 (centres undefined),5,8,-1.1,5,7802,-2,3
CCN(CC(=O)NCc1cccs1)C(=O)c1cccc(S(=O)(=O)N(CC)c2ccccc2)c1,-9,-1,4.1,2,3032,.,-1
CC1CCC2(CC1)SCC(=O)N2c1ccc(F)cc1 (centres undefined),-8,-4,3.5,-30,4188,-4,6
COc1cccc(NS(=O)(=O)c2ccc3c(c2)N(C(C)=O)CCO3)c1,-11,-13,-0.8,4,4214,10,-7
COc1cc2[nH]c(=S)n(Cc3ccc(C)o3)c(=O)c2cc1OC,4,4,4.5,-18,10288,-3,-13
CCCCCc1ccc(-c2ccc(/C=C/C(=O)O)cc2)nc1,1,2,17,46,10186,-4,16
NS(=O)(=O)c1cccc(NC(=O)COC(=O)c2ccccc2C(=O)c2ccccc2)c1,24,39,4.2,-17,3215,.,6
Cc1c(Cl)cccc1NC(=S)Nn1cnnc1,0,6,2.9,3,3093,-1,3
Cc1ccc(COc2ccc(C=NNC(=O)CN3CCCCC3)cc2)cc1,15,6,6.4,.,.,.,9
CC1=C(C(=O)OCCC#N)C(c2cc3c(cc2Br)OCO3)NC(=O)N1 (centres undefined),-6,10,-0.7,-36,3491,-1,-1
O=C1NC(=S)N/C1=C/c1ccc2c(c1)OCO2,7,-4,6.2,-1,3672,1,9
CC(=O)N1CCSc2ccc(S(=O)(=O)Nc3ccc(C)cc3)cc21,16,8,5.8,-2,5765,6,9
